Mtb MenB inh – inhibitors of Mycobacterium tuberculosis MenB enzyme; 0.43% of 100,000 active; inhibition, %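 (about 12 µg/mL by stock and volumes)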; MenB enzyme assay, absorbance read-out; some hits fall short of the stated cut;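 active = mean of two replicates above 30%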;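 also: 0% = no compound and 100% = wells with inactive enzyme; the first replicate is given; strong numbers were not always called active; inactives centre near -10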
MbtI inh – inhibitors of Mycobacterium tuberculosis siderophore enzyme MbtI. inhibition, %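 (about 17 µg/mL by stock and volumes)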. P9WFX0. purified MbtI enzyme, fluorescence intensity read-out. 0.89% of 100,000 active;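 active = above 50% in both replicates, above 80% if mildly self-fluorescent; inactive = the rest, strongly fluorescent compounds included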;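 also: 0% = mean of negative and 100% = mean of positive controls; one replicate is shown; some compounds called inactive have numbers as strong as hits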
Target sequence (P9WFX0 whole entry, looked up): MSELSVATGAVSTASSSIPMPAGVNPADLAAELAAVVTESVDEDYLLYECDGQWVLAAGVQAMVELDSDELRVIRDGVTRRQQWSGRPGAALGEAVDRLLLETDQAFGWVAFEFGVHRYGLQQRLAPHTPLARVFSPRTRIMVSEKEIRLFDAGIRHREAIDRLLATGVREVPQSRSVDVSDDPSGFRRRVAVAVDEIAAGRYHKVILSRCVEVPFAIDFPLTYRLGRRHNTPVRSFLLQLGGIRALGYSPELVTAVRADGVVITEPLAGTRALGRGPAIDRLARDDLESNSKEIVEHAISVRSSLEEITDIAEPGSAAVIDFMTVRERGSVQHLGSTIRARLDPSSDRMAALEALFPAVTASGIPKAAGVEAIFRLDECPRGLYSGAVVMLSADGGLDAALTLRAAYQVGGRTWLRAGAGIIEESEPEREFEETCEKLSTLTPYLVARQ
PV pol inh – inhibitors of poliovirus RNA polymerase binding and polymerization; P03300; poliovirus polymerase elongation, fluorescence polarization; active compounds read low; % elongation, % (compound at 16.7 µg/mL); 0.66% of 150,000 active; AID 588519; in the data active = % elongation below about 90%; also: some results filed as inactive read as strong as hits
Target sequence (P03300 1749-2209 limits assumed): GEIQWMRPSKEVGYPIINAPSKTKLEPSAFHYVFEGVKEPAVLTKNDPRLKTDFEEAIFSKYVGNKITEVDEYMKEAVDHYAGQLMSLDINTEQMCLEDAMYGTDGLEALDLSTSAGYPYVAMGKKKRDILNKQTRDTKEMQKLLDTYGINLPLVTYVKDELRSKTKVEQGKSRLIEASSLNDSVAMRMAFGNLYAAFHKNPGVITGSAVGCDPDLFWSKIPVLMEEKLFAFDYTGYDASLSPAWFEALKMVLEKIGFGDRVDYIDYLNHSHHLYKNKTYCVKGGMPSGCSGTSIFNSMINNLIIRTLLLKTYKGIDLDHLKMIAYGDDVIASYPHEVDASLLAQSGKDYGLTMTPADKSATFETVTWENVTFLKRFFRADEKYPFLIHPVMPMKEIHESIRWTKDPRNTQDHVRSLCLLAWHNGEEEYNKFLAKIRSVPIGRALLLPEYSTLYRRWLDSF
PV pol inh intensity – also measured in PV pol inh; calls as there; % elongation; measured here: total intensity read-out; formula for this scale not given here;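 total fluorescence in place of polarization; lower means less elongation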
* = called active by the depositor; i = inactive; . = no result given.

no. | SMILES | Mtb MenB inh | MbtI inh | PV pol inh | PV pol inh intensity
1 | CN(C)S(=O)(=O)c1ccc(C(=O)OCC(=O)c2cc3ccccc3o2)cc1 | -22 | -1 | 120 | 125
2 | O=C(NCCc1nnc2ccc(NCCO)nn12)c1ccccc1 | -16 | 40 | 104 | 106
3 | NC(=O)NCC(=O)N1CCN(C(=O)c2ccccc2)CC1 | -4 | -11 | 103 | 109
4 | CC1CCN(C(=O)c2ccc(N3C(=O)c4ccccc4C3=O)cc2)CC1 | -36 | 6 | 102 | 101
5 | CCC1CCCCN1C(=O)c1ccc(C(C)(C)C)cc1 (stereo not given) | -18 | . | 106 | 111
6 | CCC1CCCCN1C(=O)CSc1nnc(-c2ccc(Cl)cc2)o1 (stereo not given) | -25 | -9 | 102 | 100
7 | Cc1cccc(C(=O)OCC(=O)NC23CC4CC(CC(C4)C2)C3)c1O | -1 | 4 | 107 | 110
8 | O=C(Oc1ccc(Cl)cc1Cl)c1csc(-c2ccc3nonc3c2)n1 | 12 | 2 | 102 | 102
9 | CCC(=O)N(CCc1ccccc1)C1CC(=O)N(c2ccccc2)C1=O (stereo not given) | . | -6 | 102 | 106
10 | N#CC(C#N)=C1C(=O)c2ccccc2C1=O | -6 | 76 | 92 | 103
11 | CC(=O)Oc1cccc2c1OC(C)(C)C2 | . | 0 | 101 | 99
12 | Cc1cc(C)c(C)c(S(=O)(=O)Nc2ccccc2C(=O)NCCCN2CCOCC2)c1C | -20 | -3 | 100 | 104
13 | CCCN(C(=O)[C@H]1[C@@H]2C[C@@H]3[C@H]1C(=O)O[C@@H]3C2)c1ccccc1OCC | -15 | -6 | 105 | 107
14 | COc1ccccc1C1CCN(C(=O)c2cccnc2Sc2ccc(C)cc2)CC1 | 5 | -1 | 92 | 90
15 | CC1(c2ccc3c(c2)OCCO3)NC(=O)N(CN2CC=C(c3ccccc3)CC2)C1=O (stereo not given) | 3 | 5 | 106 | 121
16 | O=S(=O)(Cc1ccc(Cl)cc1)N1CCCC1 | -43 | -7 | 99 | 99
17 | O=C(N/N=C1/C(=O)c2cccc3cccc1c23)c1ccncc1 | -32 | 3 | 89* | 94*
18 | C=CCN(CC=C)C(=S)Nc1ccc(S(N)(=O)=O)cc1 | 1 | -14 | 100 | 103
19 | C/C(=C/C(=O)C(F)(F)F)N1CCC(C(N)=O)CC1 | -8 | 14 | 102 | 100
20 | Cc1cc(NC(=O)c2ccc3nc(N4CCOCC4)sc3c2)ccc1Br | 1 | -6 | 102 | 106
21 | COc1ccc(/C=C2\C(=O)NC(=O)N(C)C2=O)cc1 | -29 | 5 | 98 | 102
22 | CCOC(=O)c1c(C)oc2nc(C)nc(N3CCc4ccccc43)c12 | -35 | i | 105 | 98
23 | CC(=O)Nc1ccc(Cl)cn1 | -59 | 6 | 103 | 99
24 | CCOc1ccc(NC(=O)N(CCC(C)C)C(C)c2cccs2)cc1 (stereo not given) | -12 | 0 | 102 | 97
25 | COc1ccc(C(CC(=O)Nc2ccc3c(c2)OCO3)N2Cc3ccccc3C2=O)cc1 (stereo not given) | -2 | -16 | 101 | 104

Further structures follow:
no. | SMILES | Mtb MenB inh | MbtI inh | PV pol inh | PV pol inh intensity
26 | CN(CC(=O)Nc1cccc(F)c1)CC(=O)N1CCN(C(=O)c2ccco2)CC1 | -3 | -3 | 101 | 106
27 | CCOC(=O)c1ccc(NC(=O)CSC2=NC(=O)C(CC)C(=O)N2)cc1 (stereo not given) | -37 | 2 | 101 | 97
28 | CCc1ccc(NC(=O)CSc2nc3ccccc3c(=O)n2CCCC(=O)N2CCCC2)cc1 | 0 | -8 | 103 | 108
29 | Cc1cc(Nc2cccc(C(F)(F)F)c2)nc2ccc(NC(=O)c3ccc(Br)o3)cc12 | 2 | -127 | 102 | 104
30 | CCOC(=O)Cc1csc(SCC(=O)NC)n1 | -1 | -5 | 106 | 111
31 | COC(=O)c1ccccc1NC(=O)CSc1nnc(-c2cc3cccc(OC)c3o2)n1C | -15 | 9 | 99 | 101
32 | CC1CCN(C(=O)COC(=O)/C=C/c2ccccc2Cl)CC1 | . | 4 | 102 | 102
33 | NC(=O)Cc1c[nH]c2ccccc12 | 8 | 14 | 104 | 101
34 | O=C(NCCCN1CCCCCC1)c1ccc2c(Cl)c3c(nc2c1)CCCC3 | -9 | -5 | 101 | 107
35 | CCN=c1scc(-c2ccc(Br)s2)n1N=C1CCCCC1 | -22 | 0 | 103 | 108
36 | CC1Cc2ccccc2N1CC(=O)NC(=O)NC1CCCCC1 (stereo not given) | -21 | -16 | 101 | 106
37 | CCOC(=O)c1cccnc1SCC(=O)Nc1ccc(C)cc1 | 2 | 4 | 103 | 110
38 | CN(CC(=O)NC1CCCC1)Cc1ccc(Cl)s1 | -19 | -10 | 102 | 99
39 | CCCOc1c(Br)cc(C(=O)O)cc1OC | . | 0 | 102 | 97
40 | CCC(=O)N(c1nnc(SCC(=O)c2ccc(CC(N)=O)s2)s1)C1CC1 | -18 | 10 | 108 | 114
41 | COC(=O)c1cc(N2CCNCC2)nc2ccccc12 | -16 | . | 88* | 88*
42 | CCCN(CC1CC1)C(=O)CSc1nc2ccccc2c(=O)n1CCC | -5 | 11 | 104 | 103
43 | O=S(=O)(Cc1ccccc1)N(O)c1ccccc1 | . | 34 | 101 | 98
44 | COc1ccc(/C=C/C(=O)OCc2ccccc2)cc1OC | . | 14 | 103 | 105
45 | N#CCSc1nc2nccnc2c(=O)n1CCc1ccccc1 | 1 | 0 | 101 | 103
46 | N#C/C(=C(/O)CSc1ncnc2c1cnn2-c1ccccc1)c1nc2ccccc2[nH]1 | -16 | 0 | 107 | 115
47 | O=C(Nc1ccc(SC(F)F)cc1)c1ccccc1C(F)(F)F | 3 | 1 | 105 | 101
48 | CCCC1CCc2nc3ccccc3c(C(=O)O)c2C1 (stereo not given) | 7 | -3 | 102 | 102
49 | O=c1oc2ccccc2c(O)c1CN1CCCCC1 | -32 | -40 | 102 | 102
50 | Cn1c(C(=O)NCC2CCCO2)cc2c(=O)n(C)c3ccccc3c21 (stereo not given) | -3 | 21 | 101 | 109

Continuation.
no. | SMILES | Mtb MenB inh | MbtI inh | PV pol inh | PV pol inh intensity
51 | O=C(NCc1ccco1)c1ccc(Cn2c(=S)[nH]c3ccc(Br)cc3c2=O)cc1 | -16 | -4 | 102 | 105
52 | CC(C)(C)c1cc2ncnc(N3CCCCC3)c2s1 | -1 | -4 | 101 | 102
53 | Cc1ccc(N2C(=O)CC(C(=O)O)C2c2cccs2)cc1 (stereo not given) | 13 | -34 | 101 | 106
54 | CC(OC(=O)/C=C/c1cccc(Cl)c1)C(=O)N1CCN(C(=O)c2ccco2)CC1 (stereo not given) | 3 | 16 | 104 | 98
55 | Oc1ccc(C=Nc2cccc(C(F)(F)F)c2)c(O)c1 | -5 | 22 | 101 | 106
56 | Cc1nn(C)c2c1c(-c1ccccc1)cc(=O)n2C(C)C(=O)N1CCC2(CC1)OCCO2 (stereo not given) | 4 | -8 | 99 | 102
57 | COC(=O)C1=C(NC(=O)c2cccc3ccccc23)CCS1 | -21 | -3 | 103 | 102
58 | CC(NCCO)c1ccc2c(c1)OCCO2 (stereo not given) | 13 | -4 | 101 | 101
59 | COc1ccc(CCN2CC(O)=C(c3nc4ccccc4c(=O)[nH]3)C2=N)cc1OC | -21 | 10 | 102 | 103
60 | CCC1CCCCN1C(=O)COc1cc2oc(=O)c3c(c2cc1Cl)CCC3 (stereo not given) | -11 | -17 | 101 | 104
61 | CCOCCCN1Cc2c(C(=O)OCC)sc3sc(C(=O)OCC)c(c23)C1 | -22 | 1 | 98 | 97
62 | CN(Cc1ccccc1)C(=O)c1ccc(CSc2nc3ccncc3n2Cc2ccccc2)cc1 | -33 | 8 | 102 | 100
63 | Cc1ccc(NC(=O)CCN2CC(C)CC(C)C2)cc1 (stereo not given) | -50 | -17 | 105 | 101
64 | Cc1nc(-c2ccc(S(=O)(=O)N3CCCN(c4ccc(C(F)(F)F)cn4)CC3)s2)cs1 | -8 | 6 | 100 | 99
65 | CN(C)C(=O)CSc1nc(-c2ccccc2)c(-c2ccccc2)o1 | -13 | -65 | 100 | 99
66 | CN1CCn2ccc3[nH]c(=O)nc1c32 | -23 | 137 | 105 | 100
67 | c1ccc(C2CC3CC(c4ccccc4)N2O3)cc1 (stereo not given) | 12 | 20 | 101 | 97
68 | CC1(C)CC(=O)C/C(=N/NC(N)=S)C1 | -80 | 0 | 102 | 102
69 | CCn1cc(C(=O)OCC(=O)N2C(C)CCCC2C)c(=O)c2ccc(C)nc21 (stereo not given) | -2 | 4 | 105 | 107
70 | CC1CCCC(C)N1/N=C/c1ccccc1C(=O)O (stereo not given) | 3 | -3 | 101 | 102
71 | O=C1C2CC=CCC2C(=O)N1CC(=O)N(Cc1nnc(-c2ccc(Cl)cc2)o1)C1CC1 (stereo not given) | -25 | -16 | 102 | 108
72 | Cc1ccc(OCCNC(=O)C2CCCCC2)cc1 | -13 | -20 | 103 | 103
73 | CCS(=O)c1ccccc1C(=O)OCC(=O)NCc1ccc(C)cc1 (stereo not given) | -13 | 0 | 107 | 105
74 | O=C(Nc1cccc(-c2ccc3nncn3n2)c1)c1ccco1 | -8 | 7 | 107 | 105
75 | COc1ccc(CSc2nnc(C)s2)cc1F | 56* | 0 | 102 | 100

3 entries already listed, arranged by length of the SMILES, rising:
no. | SMILES | Mtb MenB inh | MbtI inh | PV pol inh | PV pol inh intensity
68 | CC1(C)CC(=O)C/C(=N/NC(N)=S)C1 | -80 | 0 | 102 | 102
73 | CCS(=O)c1ccccc1C(=O)OCC(=O)NCc1ccc(C)cc1 (stereo not given) | -13 | 0 | 107 | 105
56 | Cc1nn(C)c2c1c(-c1ccccc1)cc(=O)n2C(C)C(=O)N1CCC2(CC1)OCCO2 (stereo not given) | 4 | -8 | 99 | 102

(further entries)
no. | SMILES | Mtb MenB inh | MbtI inh | PV pol inh | PV pol inh intensity
76 | CNC(=O)CCCc1nc(-c2ccccc2)no1 | -1 | -5 | 100 | 100
77 | O=C(Cc1cccs1)N1CCN(c2ccccc2)CC1 | -6 | . | 107 | 113
78 | CCS(=O)(=O)N1CCc2cc(OC)c(OC)cc2C1c1ccc(OC)c(OC)c1 (stereo not given) | -21 | 11 | 102 | 102
79 | CN(C)c1ccc(/C=C2/SC(=Nc3ccccc3)NC2=O)cc1 | 39 | 1 | 109 | 110
80 | O=C(O)CCc1ccc(F)cc1 | -17 | . | 101 | 99
81 | CCSc1nc2ccccc2n1CC(=O)N1CCCCC1 | -15 | . | 99 | 109
82 | Cc1nc2c(Br)cc(Br)cc2c(=O)n1Cc1cccs1 | -13 | 3 | 120 | 126
83 | CCn1c(SCC(=O)NC(C)(C)C)nnc1-c1cccc(C)c1 | 28 | -12 | 102 | 102
84 | CN(C(=O)Cn1nnc(-c2ccccc2Cl)n1)c1ccccc1 | -25 | -13 | 103 | 106
85 | COc1cccc(NCc2nnc(SC(C)c3nc4ccccc4c(=O)[nH]3)n2C2CCCCC2)c1 (stereo not given) | -29 | 3 | 104 | 97
86 | O=C(/C=C\c1cn(-c2ccccc2)nc1-c1cccs1)N1CCOCC1 | . | -51 | 102 | 105
87 | O=C(CSc1nnc(Cc2ccccc2)o1)NCC(=O)Nc1ccc(F)c(F)c1F | 9 | 0 | 103 | 105
88 | O=C(Nc1ccno1)N1CCOCC1 | -13 | -10 | 106 | 112
89 | O=C1c2ccccc2C(=O)N1CCCCn1c(=O)oc2ccccc21 | 3 | -32 | 98 | 91
90 | CCN(CC)c1ccc2cc(-c3nnc(-c4cccnc4)o3)c(=O)oc2c1 | -21 | . | 39 | 255
91 | N#Cc1ccc(OCCOC(=O)Cn2cnnn2)cc1 | 4 | -10 | 103 | 109
92 | CCn1c(SCCOc2ccc(OC)cc2)nnc1C(CO)NC(=O)c1ccc(OC)cc1 (stereo not given) | -9 | -12 | 101 | 102
93 | N#C/C(=C\c1ccc(-c2cccc(C(F)(F)F)c2)o1)c1ccccc1 | -2 | . | 98 | 106
94 | CC(O)CNC(C)C(=O)Nc1c(Cl)cc(Cl)cc1Cl (stereo not given) | -62 | 0 | 101 | 97
95 | COc1ccccc1OCC#CCSc1ncccn1 | -33 | -3 | 101 | 99
96 | O=C(Cn1cnc2ccccc21)N1CCCC1 | -22 | . | 105 | 101
97 | C[C@]12CC[C@@H]3c4ccc(O)cc4CC[C@H]3[C@@H]1C[C@@H](O)[C@@H]2O | -1 | -9 | 101 | 103
98 | Cc1noc(C)c1NC(=O)NCC1CCN(S(=O)(=O)c2ccccc2)CC1 | 7 | 0 | 99 | 93
99 | CCCN(CC(=O)Nc1ccccc1OC)CC(=O)c1c(N)n(Cc2ccccc2)c(=O)n(C)c1=O | -22 | -9 | 106 | 100
100 | COc1ccc(Cc2cc(-c3cccs3)n[nH]c2=O)c(OC)c1OC | 4 | -8 | 105 | 113
101 | CC(Cc1ccccc1)NCc1ccccc1O (stereo not given) | . | -10 | 103 | 102
102 | O=C(CCN1CCCCC1)c1cc2ccccc2o1 | 13 | . | 98 | 95
103 | COc1ccc(N2CCN(C(=O)c3ccc(-n4cnnc4)cc3Cl)CC2)cc1 | -2 | -20 | 101 | 100

Along the list, from the results shown:
Compounds 92 to 102 in Mtb MenB inh, in turn: -9, -2, -62, -33, -22, -1, 7, -22, 4, ., 13

Entries shown so far that contain a tert-butyl group:
no. | SMILES | Mtb MenB inh | MbtI inh | PV pol inh | PV pol inh intensity
5 | CCC1CCCCN1C(=O)c1ccc(C(C)(C)C)cc1 (stereo not given) | -18 | . | 106 | 111
52 | CC(C)(C)c1cc2ncnc(N3CCCCC3)c2s1 | -1 | -4 | 101 | 102
83 | CCn1c(SCC(=O)NC(C)(C)C)nnc1-c1cccc(C)c1 | 28 | -12 | 102 | 102

Compound activity as filed in PubChem BioAssay.
